From PubChem
Prx2 Sm inh: inhibitors of Schistosoma mansoni peroxiredoxin 2. hit rate 0.07% among 65,000. Potency, µM. S. mansoni Prx2 activity coupled to TGR/GSH (TGR is thioredoxin glutathione reductase), NADPH fluorescence loss, qHTS; some inactives read as strong as hits; active means full or partial inhibition curve with a strong effect at the top dose; inconclusive means weaker partial or single-point curve; inactive means no accepted curve; note: series up to 57 µM; many of its hits are not listed in these tables
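Coupled assay in which S. mansoni TGR passes NADPH reducing equivalents via glutathione to Prx2, which reduces H2O2. Compounds were preincubated 15 min at room temperature with 25 nM TGR/50 nM Prx2 mix. Kinetic NADPH fluorescence loss (ex 365/em 450 nm) was monitored.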
LT uptake inh: blocks cellular internalization of anthrax lethal toxin. AID 912. Potency, µM (highest dose often 40 µM), without a hit: top-dose activity change, negative = inhibition, hits mostly inhibitors. hit rate 0.67% among 70,000. Cells, anthrax lethal toxin internalization, FRET ratio (460/530); active = well fitted falling ratio curve with the 530 nm signal flat; inconclusive = other ratio curves, or a change in one channel alone; inactive = flat curves in the ratio and both channels; the % refers to the ratio; note: % is set by controls: 0 for no effect and ±100 for the full control effect; nearly all actives have a fitted effect of over 50% in size; tested in ME-180 cells; beta-lactamase reporter
Numbers without * were called inactive; ? = inconclusive; . = not tested or not shown; & = joins results of further samples; [ ] = remark or other dose. Potency is the fitted concentration of half-maximal effect.

SMILES | Prx2 Sm inh | LT uptake inh
CCCC1=[N+](CC)CCn2c(C)ccc21 | >57 | 3%
Cc1cc(C)cc(N(CC(=O)NC2CCC(C)CC2)S(=O)(=O)c2c(C)noc2C)c1 (stereo not given) | >57 | -7%
O=c1cc(N2CCCC2)[nH]c(=O)n1-c1ccc(Cl)cc1 | >57 | -7%
O=C(c1cccc(F)c1)N1CCC2(CCN(Cc3cc(C(F)(F)F)cc(C(F)(F)F)c3)CC2)CC1 | >57 | 1%
C=CCN=C(NC#N)SCC(=O)NC(C)(C)C | >57 | -5%
Cc1cnc(CNc2ccnc(-c3c(C)noc3C)n2)cn1 | >57 | -7%
O=C(O)C(Oc1ccc2c3c(c(=O)oc2c1)CCC3)c1ccccc1 (stereo not given) | >57 | -5%
CCOC(=O)c1ccccc1NC(=O)C(C)Oc1ccccc1 (stereo not given) | >57 | ?
CC(C)c1c(O)nc(SCc2ccccc2)[nH]c1=O | >57 | 9%
COc1cc(N)c(Cl)cc1C(=O)OCCCN1CCCCC1 | >57 | ?
N#CCCn1c(=O)c(-c2ccc(Cl)cc2)nc2cnc(OCc3ccccc3)nc21 | >57 | ?
N=c1c(S(=O)(=O)c2ccc(Cl)cc2)cc2c(=O)n3ccccc3nc2n1CCN1CCOCC1 | >57 | ?
CCS(=O)(=O)NCCc1csc(C)n1 | >57 | -1%
Cc1cc(NC(=O)COC(=O)c2c(C)nn(-c3ccccc3)c2C)no1 | >57 | -11%
CCOC(=O)c1ccc2ncc(C(=O)OCC)c(NCCCN3CCOCC3)c2c1 | >57 | 15%
CCCN1CCN(CCCNC(=O)Cn2nc(-c3ccccc3)ccc2=O)CC1 | >57 | -6%
Cc1ccc(Cn2nnc3c(=O)n(CC(=O)NCC4CCCO4)cnc32)cc1 (stereo not given) | >57 | 0%
COc1ccc(C(=O)NCC(=O)NC2=NCCS2)cc1 | >57 | 3%
COc1cccc(-c2nnc3n2N=C(c2cccc(Br)c2)CS3)c1 | >57 | -1%
COc1ccc(Cl)cc1S(=O)(=O)N1CCN(CC(=O)C(C)(C)C)CC1 | >57 | -2%
CC(=C1C(=O)c2ccccc2C1=O)N1CCN(Cc2ccccc2)CC1 | >57 | 11%
CCN(CC)c1cc2nonc2c2nonc12 | >57 | -11%
Cc1ccc(C(C)NC(=O)C2CCCO2)cc1C (stereo not given) | >57 | 5%
CC(C)OCCCNC(=O)c1c(N)n(/N=C/c2ccccn2)c2nc3ccccc3nc12 | >57 | .
CCCCCn1c(CNC(=O)c2cccs2)nc2ccccc21 | >57 | ?

(listing goes on)
SMILES | Prx2 Sm inh | LT uptake inh
CCC(C)(NC(=O)CNC(C)=O)C(=O)NC1CCCCC1 (stereo not given) | >57 | -1%
CN(C)CCN1C(=O)c2oc3ccccc3c(=O)c2C1c1ccccc1 (stereo not given) | >57 | 18%
O=C(NCc1ccco1)c1cccc(NC(=O)c2ccccc2)c1 | >57 | ?
CC(=O)Nc1c(C(=O)c2ccccc2)oc2ccccc12 | >57 | -1%
Clc1cc(Br)ccc1OCCOCCN1CCOCC1 | >57 | -7%
O=C(CSc1nnc(-c2ccco2)n1-c1ccccc1)N1CCc2ccccc21 | >57 | 2%
C=CCn1cc(C(=O)NCCCOC)c(=O)c2cc(S(=O)(=O)N(CC)CC)ccc21 | >57 | ?
C=CCn1c(=S)[nH]c2ccc(Br)cc2c1=O | >57 | 1%
COc1ccc(Cl)cc1C(=O)NCC(c1ccco1)N1CCCC1 (stereo not given) | >57 | 4%
NC(=O)NC(=O)COC(=O)c1ccccc1Oc1ccccc1 | >57 | -12%
COc1ccccc1-c1cncnc1NCc1cccnc1 | >57 | 5%
COCCNc1nc(-c2ccc(N(C)C)cc2)nc2ccccc12 | >57 | ?
O=C(CCC(=O)N1CCC2(CC1)OCCO2)Nc1nnc(C(F)(F)F)s1 | >57 | 7%
CN1CCN(Cc2nc3c([nH]2)c(=O)[nH]c(=O)n3C)CC1 | >57 | .
COC(=O)C(C#N)c1nc2ccccc2nc1N1CCCC1 (stereo not given) | >57 | 3%
CC(=O)c1c(C)[nH]c(C(=O)CSc2nnc(-c3ccco3)n2Cc2ccccc2)c1C | >57 | ?
O=C(OCCCN1C(=O)c2ccccc2C1=O)c1ccco1 | >57 | -3%
CCCC(CCC)C(=O)NCCN1CCOCC1 | >57 | 1%
FC(F)(F)c1nnc2ccc(-n3ccnc3)nn12 | >57 | 1%
O=C(NCc1ccccc1Cl)C1CCN(S(=O)(=O)N2CCCCCC2)CC1 | >57 | 5%
CC(NC(=O)c1ccc(N(C)C)cc1)C(c1cccs1)N1CCN(C)CC1 (stereo not given) | >57 | ?
COc1cc(C#N)ccc1OCC(=O)c1ccc2c(c1)OCCO2 | >57 | ?
CC(C)(C)NS(=O)(=O)c1ccc(OCC(=O)Nc2ccc3c(c2)OCCO3)cc1 | >57 | 13%
CN(C)S(=O)(=O)c1cccc2nsnc12 | >57 | -2%
CC1CCCC(C)N1CC(O)COc1ccc(Cl)cc1 (stereo not given) | >57 | -10%

Among those listed so far, 3 contain bromine.
SMILES | Prx2 Sm inh | LT uptake inh
COc1cccc(-c2nnc3n2N=C(c2cccc(Br)c2)CS3)c1 | >57 | -1%
Clc1cc(Br)ccc1OCCOCCN1CCOCC1 | >57 | -7%
C=CCn1c(=S)[nH]c2ccc(Br)cc2c1=O | >57 | 1%

Further results:
SMILES | Prx2 Sm inh | LT uptake inh
CC(=O)N1CCC(C(=O)Nc2nc(-c3ccccc3)ns2)CC1 | >57 | ?
COC(=O)N1[C@H](Cc2ccccc2)C=C[C@]1(C)C(=O)O | . | -9%
CC(C)C(=O)Nc1ccc2c(c1)C(=O)N(CCC(=O)O)C2=O | . | 0%
CCOC(=O)C1CCN(C(=O)c2ccco2)CC1 | >57 | -3%
Cn1c(Cn2c(=O)sc3ccccc32)nnc1SCC(=O)N1CCCC1 | >57 | 29%
Cc1nnc(SCc2nc3ccccc3s2)n1-c1ccccc1 | >57 | 3%
COc1ccc(-c2cn3cccnc3n2)cc1NC(=O)c1ccc(Br)o1 | >57 | -22%
CCn1c(N)c(C(=O)NCC2CCCO2)sc1=S (stereo not given) | >57 | -9%
CC1=NC(C(F)(F)F)(C(F)(F)F)C2=C(CC(C)(C)CC2=O)N1Cc1ccco1 | >57 | -34%
O=S(=O)(c1ccc(OCC(O)CNCc2ccco2)c(Cl)c1)N1CCOCC1 (stereo not given) | >57 | 9%
c1ccc(-n2cnc3cc(NCc4ccccn4)ccc32)cc1 | >57 | -16%
Cn1c(CCN2CCCCC2)nc2cc(NS(=O)(=O)c3ccc(Cl)cc3)ccc21 | >57 | .
COc1ccc(-c2nnc(SCC(=O)N3CCCCC3)o2)cc1OC | >57 | 9%
Cc1ccccc1NC(=O)C1CCCN(S(=O)(=O)c2c(C)noc2C)C1 (stereo not given) | >57 | 5%
COC(=O)CSc1nnc(CNS(=O)(=O)c2ccc(C)cc2)n1C | >57 | 0%
O=C(CN1CCN(Cc2ccccc2F)C1=O)NCc1cccnc1 | >57 | 5%
O=C1CCCN1CCCNc1ncnc2c1[nH]c1ccc(Cl)cc12 | >57 | ?
CCOC(=O)CCc1c(C)nc2cc(-c3ccc(F)cc3)[nH]n2c1=O | . | -13%
COc1ccccc1N1CCN(Cc2cccc(OC)c2O)CC1 | >57 | -5%
O=C(CSc1nc2ccccc2c(=O)n1C1CC1)NCc1ccccc1 | >57 | 2%
O=C(Oc1ccc2c(c1)OCO2)c1cccs1 | >57 | 8%
CO/N=C(\C(=O)N[C@@H]1C(=O)N2C(C(=O)O)=C(COC(C)=O)CS[C@@H]12)c1csc(N)n1 | >57&>57 | 3%[3.58 µM]
O=C1C2C3C=CC(C3)C2C(=O)N1CNc1ccc(O)cc1 (stereo not given) | >57 | -9%
c1ccc(Cc2nnc3sc(-c4ccncc4)nn23)cc1 | >57 | 1%
CCN1C(=O)c2cccc3c(N)ccc1c23 | ? | ?

Further records.
SMILES | Prx2 Sm inh | LT uptake inh
CCN(CC)C(=O)Cc1cc(C(=O)O)c2ccccc2n1 | >57 | 0%
CN(C)C(=O)N1CCC(C(=O)NCC2CCCO2)CC1 (stereo not given) | >57 | 7%
CCCN1C(=O)c2ccccc2NC1c1ccc(OC)cc1OC (stereo not given) | >57 | ?
CCOC(=O)c1cc(CNC(=O)c2c(C)oc3c2CCCC3)c(C)o1 | >57 | -3%
COc1ccc(C(=O)N2CCC3(CC2)CCN(c2ccccc2)CC3)cc1 | >57 | ?
COc1ccccc1N(CC(O)CN(c1ccccc1)S(C)(=O)=O)S(=O)(=O)c1ccccc1 (stereo not given) | >57 | ?
CC(=O)C(C)Oc1ccc2c3c(c(=O)oc2c1)CCCC3 (stereo not given) | >57 | -12%
O=C(CCS(=O)(=O)c1cccs1)N1CCCC1 | >57 | -2%
CCCSc1nnc(-c2ccccc2NC(=O)CC)c(=O)[nH]1 | >57 | 10%
CCN1C(=O)C2(C(C#N)=C(N)Oc3cc(C)oc(=O)c32)c2ccccc21 (stereo not given) | >57 | 1%
CCOCCCNC(=O)CCCn1nc(C)n2c(cc3sccc32)c1=O | >57 | 2%
CC1Cc2nc(SCC(=O)N3CCCC3)n(C)c(=O)c2S1 (stereo not given) | >57 | 11%
CNC(=O)CSc1nnc(-c2cccnc2)n1CCc1ccccc1 | >57 | -6%
CC1CCN(S(=O)(=O)c2cccc(C(N)=O)c2)CC1 | >57 | 18%
C=Cn1ccnc1P(=S)(c1ccc2c(c1)c1ccccc1n2CC)c1nccn1C=C | >57 | 17%
CCOC(=O)C1CCN(C(=O)C2CCN(S(=O)(=O)c3cc(Cl)ccc3Cl)CC2)CC1 | >57 | -1%
C=CCN(CC=C)C(=O)C1CC(=O)N(c2ccc(Br)cc2)C1 (stereo not given) | >57 | 1%
Cc1ncoc1C(=O)Nc1cccc(Cl)c1 | >57 | ?
O=C(Nc1ccccn1)c1c(O)c2cccc3c2n(c1=O)CCC3 | >57 | -3%
O=C(O)C1CCNCC1 | >57 | 2%
O=C(CN1CCN(c2ccccc2)CC1)Nc1ccccc1C(F)(F)F | >57 | -11%
Cc1cc(C)nc(N(C#N)CN2C(=O)c3ccccc3S2(=O)=O)n1 | >57 | 10%
COc1ccc(-c2ccc(CCC(=O)O)n2C(C)C)cc1 | >57 | 0%
CCOC(=O)C1CCN(C(C)C(=O)c2c(C)[nH]c3cc(C)ccc23)CC1 (stereo not given) | >57 | ?
CCOC(=O)c1[nH]c2ccc(F)cc2c1NC(=O)CN1CCc2cc(OC)c(OC)cc2C1 | >57 | .

An excerpt from above in order of SMILES length, highest first.
SMILES | Prx2 Sm inh | LT uptake inh
CCN1C(=O)C2(C(C#N)=C(N)Oc3cc(C)oc(=O)c32)c2ccccc21 (stereo not given) | >57 | 1%
Cc1cc(C)nc(N(C#N)CN2C(=O)c3ccccc3S2(=O)=O)n1 | >57 | 10%
CNC(=O)CSc1nnc(-c2cccnc2)n1CCc1ccccc1 | >57 | -6%
COc1ccc(-c2ccc(CCC(=O)O)n2C(C)C)cc1 | >57 | 0%
Cc1ncoc1C(=O)Nc1cccc(Cl)c1 | >57 | ?

The results go on:
SMILES | Prx2 Sm inh | LT uptake inh
Cc1cc(C)c(NC(=O)CS(=O)CC(=O)N2CCN(c3ccccc3)CC2)c(C)c1 (stereo not given) | >57 | -22%
COC(=O)c1ccc(CSc2ccccc2C)o1 | >57 | -18%
CCN(CC)CCn1c(-c2ccccc2)nc2c(N3CCOCC3)nc(C)nc21 | . | 8%
N#CC(C(=O)NC1CCCCC1)c1nc2ccccc2nc1N1CCN(c2ccc(F)cc2)CC1 (stereo not given) | >57 | ?
Cc1nc2cnc(Nc3ccccc3)nc2n(C[C@H]2CCCO2)c1=O | >57 | -5%
COc1ccc(C)cc1-n1nnnc1SCc1cn2ccsc2n1 | >57 | 2%
CCOC(=O)C1=C(c2ccccc2)N2CCS(=O)(=O)N=C2S1 | >57 | 0%
COc1cccc(Cn2c(=O)cnc3cnc(N(C)C)nc32)c1 | >57 | ?
CCc1ccccc1NC(=O)COC(=O)C1CC(=O)N(c2ccc(F)cc2)C1 (stereo not given) | >57 | -6%
COCCNC(=O)COc1ccccc1Cl | . | 11%
CC(C)(C)C(=O)CSc1nc2ncc(Br)cc2[nH]1 | >57 | 2%
COc1ccccc1CNc1nc2nc(C)c(Cl)c(=O)n2[nH]1 | >57 | -2%
Cc1nnc(SCC(=O)N2CCc3ccccc32)s1 | >57 | -3%
COc1ccccc1N1CCN(S(=O)(=O)CC23CCC(CC2=O)C3(C)C)CC1 (stereo not given) | >57 | -4%
Cc1n[nH]c(C)c1Cc1ccc(C(=O)O)cc1 | >57 | 6%
Cn1cnnc1SCC(=O)OCN1C(=O)c2ccccc2C1=O | >57 | 2%
O=C(CSC1=NC(=O)C(Cc2ccccc2)C(=O)N1)Nc1ncccn1 (stereo not given) | . | 1%
O=C(Nc1cccc(Cl)c1)N1CCN(C/C=C/c2ccccc2)CC1 | >57 | ?
O=P(C(c1ccc2c(c1)OCO2)N1CCOCC1)(N1CCOCC1)N1CCOCC1 (stereo not given) | >57 | -4%
Cc1ccccc1NC(=O)NCc1ccco1 | >57 | -17%
Nc1nc(CN2CCc3ccccc3C2)nc(Nc2ccccc2)n1 | >57 | 3%
COc1ccc2nc(COC(=O)c3ccco3)c(C(C)=O)[n+]([O-])c2c1 | >57 | ?

As entered above:
LT uptake inh with COCCNC(=O)COc1ccccc1Cl is entered as 11%
Prx2 Sm inh with CCOC(=O)C1=C(c2ccccc2)N2CCS(=O)(=O)N=C2S1 is entered as >57

Not all compounds are listed; count on the stated rates, not on these rows.
